HNF4A DNA FP – change in binding of human HNF4 alpha to DNA; HNF4a-FITC DNA binding, fluorescence polarization, 1 h; activity change, % at 10 µM; 0.3% of 360,000 active; AID 1224865; in the data active means activity change above about 30%, passing the limit was not always enough;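 further: controls were the assay level and a saturating level of protein; the project sought stronger binding though the title names inhibitors; some compounds called inactive have numbers as strong as hits; positive values seem to mean higher polarization but the record does not say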
ALR H2O2 inh – human ALR oxidase inhibition via reduced H2O2; purified ALR, DTT oxidation, H2O2 HRP-luminol luminescence; inhibition, % (test concentration not listed); 3.8% of 290,000 active; AID 485317;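 active means mean and each replicate at 75% or more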;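 further: stock transfer was 7.5 nL into about 7.5 µL; 0% = neutral wells and 100% = wells with inactivated enzyme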
Target sequence (P55789 whole entry, looked up): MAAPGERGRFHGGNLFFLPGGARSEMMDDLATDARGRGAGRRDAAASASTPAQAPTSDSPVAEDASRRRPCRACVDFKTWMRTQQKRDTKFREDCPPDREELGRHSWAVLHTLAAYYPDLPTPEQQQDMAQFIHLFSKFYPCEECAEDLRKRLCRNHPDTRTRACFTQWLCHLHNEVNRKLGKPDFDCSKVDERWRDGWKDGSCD
E coli growth – blocks Escherichia coli growth | OD600, 23 h; active compounds read low | OD600 absorbance (no concentration beside the values) | 0.21% of 330,000 active | AID 1053175;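 active means OD600 absorbance below the run mean of sample wells minus 3.6 SD, in any replicate, cut at about 0.56 in these data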;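 further: stock transfer was 300 nL into about 60 µL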
Ecoli rRNA inh – inhibitors of bacterial rRNA selective over humanized ribosomes. E. coli WT GFP vs humanized-ribosome RFP mutants, fluorescence, 24 h; active compounds read low; DMSO median 0, no signal -100. 1.6% of 350,000 active. AID 720706. GFP signal change (wild-type ribosome), % (concentration not given with the values);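 active means significant combined selectivity score with lowered wild-type GFP, culture density cut under 30%, mutant RFP and density less affected; inactive means any of these conditions unmet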; further: one replicate is shown; some compounds called inactive have numbers as strong as hits
FGF22 binding – FGF22 (human) thermal shift binding. Q9HCT0. recombinant FGF22 thermal shift, SYPRO orange fluorescence; percent of sucrose octasulfate shift, DMSO zero. calls only at 9.99 µM. 1.5% of 340,000 active;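 active means melting point raised past a set limit in the mean and every replicate; three in four hits are not shown here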
Target sequence (Q9HCT0 whole entry, looked up): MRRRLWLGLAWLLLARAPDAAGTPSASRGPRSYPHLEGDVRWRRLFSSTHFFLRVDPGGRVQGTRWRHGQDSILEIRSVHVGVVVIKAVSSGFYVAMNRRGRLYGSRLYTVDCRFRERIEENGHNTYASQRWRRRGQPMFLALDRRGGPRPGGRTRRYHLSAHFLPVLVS
B2AR ag – activates human beta-2 adrenergic receptor causing internalization; P07550; Am2.2-beta2AR cells, FAP receptor internalization, flow cytometry; reference of the scale not given here; response, % (no concentration beside the values); 0.43% of 340,000 active;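 active means response above a set limit, near 3 SD of response in nonfluorescent compounds, cut at about 42% in these data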;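 further: stock transfer was 100 nL into about 11 µL; a reference agonist was the positive control; negative values mostly stem from fluorescent compounds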
UCH37 DUB inh – human UCH37 deubiquitinating enzyme inhibition; AID 588478; 0.33% of 330,000 active; inhibition, % (concentration not given with the values); purified proteasome/UCH37, Ub-AMC cleavage fluorescence; Q9Y5K5;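 active means mean of two replicates above 20%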;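 further: 0% = compound-free wells with enzyme and 100% = wells lacking proteasome; stock transfer was 100 nL into about 20 µL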
Target sequence (Q9Y5K5 whole entry, looked up): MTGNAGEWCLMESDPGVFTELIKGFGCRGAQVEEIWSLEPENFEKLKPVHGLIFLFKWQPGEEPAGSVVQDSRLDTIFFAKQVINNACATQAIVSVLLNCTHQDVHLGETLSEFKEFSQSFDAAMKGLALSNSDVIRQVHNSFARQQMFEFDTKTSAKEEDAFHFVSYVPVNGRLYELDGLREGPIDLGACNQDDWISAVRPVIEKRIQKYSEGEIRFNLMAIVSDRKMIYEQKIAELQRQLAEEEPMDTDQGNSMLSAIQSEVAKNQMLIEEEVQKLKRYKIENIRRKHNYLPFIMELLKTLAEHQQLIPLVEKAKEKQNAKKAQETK
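system = Proteasome-associated human UCH37 deubiquitinase | amount = 0.15 nM proteasome as dispensed | medium = pH 7.4 Tris-HCl (50 mM) with ovalbumin, ATP-MgCl2, DTT | incubation = 30 min preincubation with enzyme, 25 min cleavage at room temperature | detection = AMC fluorescence 355/460 nm | read-out basis = percent inhibition | controls = no-proteasome and no-compound wells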
Ecoli rRNA inh OD600 – also measured in Ecoli rRNA inh; calls as there; OD600 change, %; measured here: OD600 growth;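 optical density of the mix in the first replicate; 0 = DMSO median and -100 = no signal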
Ecoli rRNA inh RFP – further read-out of Ecoli rRNA inh, marked with its call; RFP signal change, %; measured here: RFP humanized mutant strains;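 first replicate; 0 = DMSO median and -100 = no signal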
Active calls of the source: *; i = inactive; . = no result given; & = joins results of further samples. These rows are one share of the data (hit frequency here may not be typical).

SMILES	HNF4A DNA FP	ALR H2O2 inh	E coli growth	Ecoli rRNA inh	Ecoli rRNA inh OD600	Ecoli rRNA inh RFP	FGF22 binding	B2AR ag	UCH37 DUB inh
Cc1ccc(Sc2nc3c(c(=O)[nH]c(=O)n3C)n2CCc2ccccc2)cc1	3.9	-6	0.74	.	.	.	i	10	3.9
O=C(NCc1ccccc1)c1cccc(NC(=O)c2ccco2)c1	3.7	11	0.71	.	.	.	.	-2	3.3
NS(=O)(=O)c1ccc(Nc2ccc3cc(S(=O)(=O)N4CCCCC4)ccc3n2)cc1	-4.1	-11	0.69	-11	-48	-3.2	i	5	-158
COc1ccc(N2CCN(c3oc(-c4ccccc4OC)nc3C#N)CC2)cc1	0.4	4	0.72	-14	0	18	i	0	-4.6
CCCNC(=O)c1ccc(N2CCC3(CC2)CC(c2cccc(Br)c2)=NO3)c(NC(=O)c2ccc(Br)cc2)c1	3.4	-7	0.69	9	4	2.7	i	-7	-0.2
Cc1cc(C)cc(C(=O)NC(CC(N)=O)c2ccc(NCC3CC3)c([N+](=O)[O-])c2)c1 (configuration not stated)	1.2	-12	0.7	9	19	-5.6	i	-9	3.5
O=C(Nc1ncccc1O)c1cccc(S(=O)(=O)NCc2ccccc2)c1	-3.0	-25	0.7	0	0	-0.8	i	-7	6.0
C[C@H]1CN([C@@H](C)CO)C(=O)c2cc(Br)cnc2O[C@H]1CN(C)C(=O)C1CC1	-1.1	.	.	16&6	14&2	2.1&-2.8	i	.	.
CCOc1ccc(C(=O)NC2CC(C)(C)NC(C)(C)C2)cc1	-2.2	.	0.66	-3	1	-3.1	i	-2	0.9
Cc1ccc(-c2noc(CC(=O)c3ccc([N+](=O)[O-])cc3)n2)cc1	1.0	.	.	-3	9	-1.4	i	-1	.
CCOCCCNC(=O)C(C)NS(=O)(=O)c1ccc(C)cc1 (configuration not stated)	3.6	-15	0.66	.	.	.	.	6	0.6
COCCn1c(-c2cccc([N+](=O)[O-])c2)nc2c1c(=O)[nH]c(=O)n2Cc1ccccc1	2.5	99*	0.67	.	.	.	.	-3	1.9
CCOc1ccccc1C(=O)N(Cc1sccc1C)C1CCS(=O)(=O)C1 (configuration not stated)	-2.6	-3	0.66	4	6	1.1	i	2	-3.2
COCCCNC(=O)c1cccc2c(-c3ccc(OC)cc3C)coc12	4.5	.	.	-22	-45	-4.6	i	.	.
CCOc1ccccc1C(=O)N1CCC(n2nnc3cc(C)ccc32)CC1	-1.6	-20	0.73	.	.	.	.	0	0.5
Cc1ccc(C(=O)c2ccccc2C(=O)OCC(=O)NC(C)(C)C)cc1	4.3	3	0.72	-20*	-5.5*	2.4*	i	-2	1.8
Cc1ccc(OCC(=O)N2N=C(c3cccnc3)CC2(O)C(F)(F)F)cc1C (configuration not stated)	0.3	0	0.73	16	19	-5.4	i	8	-1.9
CC(/C=C1\SC(=Nc2cccnc2)NC1=O)=C\c1ccccc1	20	.	0.66	12	-13	26	i	22	2.9
C[C@H]1CN([C@@H](C)CO)C(=O)CCCn2cc(nn2)CO[C@@H]1CN(C)C(=O)Nc1ccccc1	1.6	.	.	3&1	9&0	0.6&-2.0	i	.	.
COc1ccc(C(=O)N/C(=C/c2cccnc2)C(=O)Nc2cccc(C(C)=O)c2)cc1OC	0.3	.	0.64	0	0	-2.2	i	-5	8.3
COc1cc(C2c3cc4c(cc3OC(NCc3ccccc3)C2C)OCO4)cc(OC)c1OC (configuration not stated)	-7.4	.	.	-1	-6	-1.0	i	19	.
O=C(NCC1COCCO1)c1ccc(OC2CCN(CCc3ccccc3)CC2)cc1 (configuration not stated)	-1.6	.	0.7	4	10	2.8	i	-1	1.7
O=C(N/N=C\c1ccco1)c1cncc(Br)c1	.	-22	.	11	0	5.5	i	.	.
CC[C@@]12C(=O)N(c3cccc(F)c3)C(=O)N1[C@H](c1ccc(F)cc1)[C@@H]1C(=O)N(C3CCCCC3)C(=O)[C@@H]12	-2.3	-14	.	.	.	.	.	4	-0.1
COc1ccc(/C=C(\NC(=O)c2ccc([N+](=O)[O-])cc2)C(=O)NCCCN2CCOCC2)cc1	3.5	-12	0.67	-14*	8.1*	-2.4*	i	-2	6.1
CSc1cccc(NS(=O)(=O)c2ccc3c(c2)NC(=O)C(C)C(=O)N3)c1 (configuration not stated)	2.3	-8	0.73	1	-7	-7.6	i	-2	-0.6
CCCCc1nc(NCCNC(=O)c2ccccc2)c(C#N)c2c1CSC(C)(C)C2	-6.5	.	0.76	.	.	.	.	11	-70
Nc1nc(Cl)cc(Sc2ccc(F)cc2)n1	-1.3	5	0.81	.	.	.	.	-8	1.1
N#CC(C(=O)NC1CCCCC1)=C1CCCCCC1	0.1	-5	0.68	.	.	.	i	-3	0.4
O=c1cc(O)nc(-c2ccc(Cl)cc2)s1	-0.2	93*	0.69	6	4	-1.1	.	-2	1.6

6 entries out of the list above, sorted by their value in Ecoli rRNA inh OD600, low to high.
SMILES	HNF4A DNA FP	ALR H2O2 inh	E coli growth	Ecoli rRNA inh	Ecoli rRNA inh OD600	Ecoli rRNA inh RFP	FGF22 binding	B2AR ag	UCH37 DUB inh
COCCCNC(=O)c1cccc2c(-c3ccc(OC)cc3C)coc12	4.5	.	.	-22	-45	-4.6	i	.	.
COc1cc(C2c3cc4c(cc3OC(NCc3ccccc3)C2C)OCO4)cc(OC)c1OC (configuration not stated)	-7.4	.	.	-1	-6	-1.0	i	19	.
O=C(Nc1ncccc1O)c1cccc(S(=O)(=O)NCc2ccccc2)c1	-3.0	-25	0.7	0	0	-0.8	i	-7	6.0
CCOc1ccccc1C(=O)N(Cc1sccc1C)C1CCS(=O)(=O)C1 (configuration not stated)	-2.6	-3	0.66	4	6	1.1	i	2	-3.2
COc1ccc(/C=C(\NC(=O)c2ccc([N+](=O)[O-])cc2)C(=O)NCCCN2CCOCC2)cc1	3.5	-12	0.67	-14*	8.1*	-2.4*	i	-2	6.1
Cc1ccc(OCC(=O)N2N=C(c3cccnc3)CC2(O)C(F)(F)F)cc1C (configuration not stated)	0.3	0	0.73	16	19	-5.4	i	8	-1.9

Going on with the list.
SMILES	HNF4A DNA FP	ALR H2O2 inh	E coli growth	Ecoli rRNA inh	Ecoli rRNA inh OD600	Ecoli rRNA inh RFP	FGF22 binding	B2AR ag	UCH37 DUB inh
O=C(c1cccc(S(=O)(=O)NCc2ccccc2)c1)N1CCN(c2ccccc2Cl)CC1	-1.2	.	0.69	.	.	.	i	1	1.2
COc1cccc2cc(C(=O)C3=C(O)C(=O)N(CCN4CCOCC4)C3c3cccs3)oc12 (configuration not stated)	4.7	-29	0.74	.	.	.	.	2	3.5
Cc1c(Cl)ccc(S(=O)(=O)NCCN2CCOCC2)c1Cl	1.4	-5	0.66	5	3	1.0	i	-8	5.5
COc1cccc(C(C(=O)Nc2ccc(F)cc2)N(C(=O)Cn2nnc3ccccc32)C2CC2)c1 (configuration not stated)	-1.6	-2	0.69	.	.	.	.	4	1.2
CN1CCOCCOCCN(C)C(=O)N2CCOCCOCCN(CCOCC2)C1=O	-2.8	.	0.67	.	.	.	.	-1	2.0
CC1=NN(C(N)=S)C(=O)C1N=Nc1c(C)n(C)n(-c2ccccc2)c1=O (configuration not stated)	-1.1	.	0.69	-18	-15	-4.4	i	1	20
COCCCN1C(=O)C2C(C(=O)Nc3cccc(Cl)c3)C3C=CC2(O3)C1C(=O)NC1CCCCC1 (configuration not stated)	0.8	-3	0.7	.	.	.	.	-8	4.2
COc1cc2c(=O)n(CC3CCCO3)c(=O)n(CC(=O)Nc3cccc(Cl)c3)c2cc1OC (configuration not stated)	2.9	.	0.71	.	.	.	.	2	-11
COC(=O)c1sccc1NC(=O)CC1C(=O)NCCN1C(=O)c1ccc(C)c(C)c1 (configuration not stated)	3.0	-3	0.68	9	9	-1.4	i	1	1.7
Cc1ccc(NC(=O)C2CCCN(S(=O)(=O)c3cccc4cccnc34)C2)cc1 (configuration not stated)	-0.2	-1	0.68	0	-5	-1.1	i	-4	-2.1
O=C(NNc1ccc(Cl)nn1)c1ccc(Cl)cc1	-0.2	0	0.71	10	8	-0.9	i	-4	-0.9
C=CCc1cc(C=Nc2ccc(N3CCOCC3)cc2)cc(OCC)c1O	-2.5	.	.	-2	0	1.8	i	4	.
CCN(CC)C(=O)c1cccc(-c2csc(C(O)(c3ccccc3)C(F)(F)F)n2)c1 (configuration not stated)	-1.7	.	.	-8	-35	-1.3	i	.	.
C[C@H]1CN([C@@H](C)CO)S(=O)(=O)c2ccc(Br)cc2O[C@@H]1CN(C)C(=O)c1cccnc1	3.7	.	.	3&0	-2&-1	-4.0&0.6	i	.	.
Cc1oc2cc3oc(=O)c(CCC(=O)N[C@H](C(=O)O)C(C)C)c(C)c3cc2c1C	3.0	-5	0.64	-1	7	1.4	i	-10	-139
CCOP(=O)(c1ccccc1)C(O)c1ccccc1 (configuration not stated)	-2.1	-3	0.7	.	.	.	.	-1	-0.7
C[C@H](CO)N1C[C@H](C)[C@@H](CN(C)Cc2ccccc2)Oc2c(NC(=O)c3ccncc3)cccc2C1=O	2.0	.	0.71	-1&-6	-3&-2	0.2&-0.6	i	5	0.4
CCCOc1ccc(-c2nc(N)n[nH]2)cc1	4.5	60	0.68	.	.	.	.	0	-0.5
O=S(=O)(O)C(c1ccccc1)C1(O)CCCCC1 (configuration not stated)	-3.2	.	0.68	9	18	3.2	i	-53	0.3
CC(=O)Nc1ccc(/C=C(\C#N)C(=O)NC2CCCCC2C)cc1 (configuration not stated)	-3.9	0	0.69	-1	6	1.9	i	11	2.3
CCCc1cc(=O)[nH]c(SCC(=O)NCCCC(=O)OCC)n1	0.7	1	0.65	.	.	.	.	-1	1.6
CC(=O)Nc1c2c(nn1-c1ccccc1C)CS(=O)C2 (configuration not stated)	-2.1	1	0.72	7	12	3.1	i	0	-0.3
CCOC(=O)C1=C(C)NC(=O)NC1c1ccc(OCC(=O)OC)c(OC)c1 (configuration not stated)	1.8	-6	0.69	.	.	.	.	15	0.0
Cc1cc(NC(=O)CSc2nnc(-c3cccnc3)n2C2CCCCC2C)no1 (configuration not stated)	-0.5	4	0.76	.	.	.	.	4	-2.7
CSCc1cc(N(C)c2ccccc2)nc(-c2ccccn2)n1	1.1	0	.	-56	-77	-18	i	0	.
Cc1cccc(N2CC(C(=O)Nc3nnc(SCc4ccccn4)s3)CC2=O)c1 (configuration not stated)	3.8	-17	0.68	0	2	9.3	i	-4	3.0
O=C(Nc1cccc(-c2cccc(F)c2)c1)C1CCN(C2CCOCC2)CC1	1.8	-5	0.69	-1	-5	2.5	i	6	1.0
COc1ccc(-c2nnc(N(C)C(=O)c3ccco3)s2)cc1OC	-0.5	3	0.66	4	4	-0.4	i	-18	-63
CCSc1nnc(NC(=O)CN2C(=O)NC3(CCCC3)C2=O)s1	0.8	-4	0.72	-5	-4	-2.4	i	-3	-2.0
Cc1ccn(CC(=O)N2CCCC(N3CCN(c4cccc(C(F)(F)F)c4)CC3)C2)n1 (configuration not stated)	0.5	.	.	0	-1	-3.3	i	.	.
O=C(CCC(=O)N1CCOc2ccccc21)NCCN1CCOCC1	-0.9	3	0.71	0	8	-6.2	i	6	3.3
COc1ccc(OC)c(NC(=O)C2COc3ccccc3O2)c1 (configuration not stated)	-6.8	-35	0.75	.	.	.	.	0	2.2
COc1cc(/C=C(\C#N)c2ccccn2)ccc1OCC(=O)Nc1cccc(C(F)(F)F)c1	2.9	-34	0.67	.	.	.	.	76*	-19
Cc1nn(-c2ccccc2)c(C)c1C(=O)NCCc1ccccc1	0.2	0	0.64	-5	-6	5.1	i	7	2.9
NC(=O)CC[C@H](NC(=O)c1ccc(F)cc1)C(=O)OCC(=O)NCc1ccc2c(c1)OCO2	-1.4	-2	0.72	4	11	-4.3	i	0	4.1
